From PubChem
Insulin prom inh: inhibitors of insulin promoter-driven GFP, primary screen, imaging, TRM-6 cells (human fetal islet line), eGFP reporter, cell count. actives 0.9% (n = 130,000). reporter expression induced with tamoxifen. inhibition, % at 2 µM;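 active = inhibition above the mean plus 3 SD, with well images judged a real hit on visual review, cut at about 60% in these data, passing the limit was not always enough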
GALR2 agonist: GALR2 receptor agonists, primary screen, cell-based. GALR2-expressing cells, agonist activation read-out. activation, %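 (tested at 5 µM)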. actives 0.48% (n = 140,000). AID 803, 2007;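 active = above mean plus 3 SD of all compounds, about 5% in these data, not always enough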;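 note: 0% = vehicle buffer wells and 100% = reference agonist at full effect; tested in CHO reporter cells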
Target sequence (O43603 whole entry, looked up): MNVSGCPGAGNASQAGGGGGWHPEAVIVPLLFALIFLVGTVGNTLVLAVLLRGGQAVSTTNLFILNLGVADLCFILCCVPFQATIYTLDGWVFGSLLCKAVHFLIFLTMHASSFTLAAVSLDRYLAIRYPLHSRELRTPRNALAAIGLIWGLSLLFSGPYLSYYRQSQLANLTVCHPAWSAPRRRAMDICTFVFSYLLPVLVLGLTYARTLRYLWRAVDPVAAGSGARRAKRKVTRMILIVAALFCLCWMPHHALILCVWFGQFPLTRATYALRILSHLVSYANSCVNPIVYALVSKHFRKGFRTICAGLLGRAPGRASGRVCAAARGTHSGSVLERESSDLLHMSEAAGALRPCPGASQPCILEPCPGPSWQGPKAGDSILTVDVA
RGS16-Gao: modulators of RGS16 binding to Galphao, primary screen, biochemical, human proteins, multiplexed bead flow cytometry. actives 0.38% (n = 220,000). Regulator of G-protein signaling 16 (Homo sapiens) + Guanine nucleotide-binding protein …. bead-based flow cytometry RGS16-Galphao binding, fluorescence; actives lie on both sides. binding response (% of control), % at 10 µM. AID 1441, 2008;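 active = below 25% or above 175%, edge rows of some plates excepted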;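 note: Galphao activated by GDP with aluminum fluoride before binding; 100% = wells without compound and 0% = beads without RGS; some results beyond the cut were filed as inactive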
Target sequence (O15492 whole entry, looked up): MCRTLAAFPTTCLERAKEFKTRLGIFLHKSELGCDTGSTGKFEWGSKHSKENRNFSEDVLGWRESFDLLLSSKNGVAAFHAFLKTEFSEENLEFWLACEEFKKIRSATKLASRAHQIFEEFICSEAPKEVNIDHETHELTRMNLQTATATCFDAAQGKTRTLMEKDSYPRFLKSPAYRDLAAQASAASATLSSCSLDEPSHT
Target sequence (P09471 whole entry, looked up): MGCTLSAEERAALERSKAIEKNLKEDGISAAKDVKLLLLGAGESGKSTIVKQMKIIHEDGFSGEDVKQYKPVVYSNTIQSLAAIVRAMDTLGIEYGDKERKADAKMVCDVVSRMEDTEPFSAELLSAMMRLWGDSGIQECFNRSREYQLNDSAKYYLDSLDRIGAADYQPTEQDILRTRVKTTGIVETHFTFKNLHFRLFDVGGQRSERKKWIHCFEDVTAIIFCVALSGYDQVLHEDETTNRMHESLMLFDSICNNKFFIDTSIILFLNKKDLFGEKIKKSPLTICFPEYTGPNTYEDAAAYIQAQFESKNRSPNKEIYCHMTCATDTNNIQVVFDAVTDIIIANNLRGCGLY
HSV replic up: enhancers of HSV replication in host cells, fold increase, host cell viability | HSV replication augmentation in cells | maximum fold increase | actives 0.005% (n = 220,000) | AID 1956, 2009;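 active = peak rise of 1.5-fold or more in the series; tested in PC3 cells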;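 note: first round at 10 µM; read as green reporter fluorescence; hits show the peak of a series up to 25 µM; 1 = signal of infected wells without compound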
PKD1 inh: inhibitors of human PKD1 kinase, biochemical, fluorescence polarization. PKD1 kinase fluorescence polarization assay. actives 0.056% (n = 200,000). Serine/threonine-protein kinase D1 (Homo sapiens), Q15139. AID 797, 2007. inhibition, %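 (about 10 µM by stock and volumes)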;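 active = inhibition of 50% or more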;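 note: controls were vehicle for no effect and a reference inhibitor for full effect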
Insulin prom inh cell count: second read-out of Insulin prom inh, no call of its own (marks repeat the call); normalized cell count, %; measured here: cell count, toxicity; reference of the scale not given here;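 cells exposed to compound for 48 h; stained nuclei by imaging scaled within each plate; lower means fewer cells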
HSV replic up primary fold: second read-out of HSV replic up, no call of its own (marks repeat the call); fold increase; compound at 10 µM; measured here: primary screen fold increase 10 uM; tested in PC3 cells;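 GFP signal in the first replicate; 1 = infected wells without compound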
* marks the source's active call; other numbers are inactive results; i = inactive; x = not tested or not shown. Rows were taken by chance; 1.3% or so of the library scored in one or more.

SMILES	RGS16-Gao	PKD1 inh	HSV replic up	GALR2 agonist	HSV replic up primary fold	Insulin prom inh	Insulin prom inh cell count
O=C(Nc1ccccc1C(=O)N/N=C/c1ccc(F)cc1)c1ccccc1Br	97	4	i	-1.5	1	x	x
CC(C)COc1ccc(CNC(=S)NCc2ccccc2)cc1	95	8	i	-2.8	0.54	x	x
COc1ccc(-c2nnc(SC(C)C(=O)Nc3nccs3)n2Cc2ccccc2)cc1OC (configuration not stated)	104	1	i	-0.9	0.78	-200	92
CC(=O)N1N=C(c2cccs2)CC1c1cccs1 (configuration not stated)	115	4	i	x	0.99	23	47
CCc1nc2ccccc2c(C(=O)OCC(=O)NCCCN2CCCC2=O)c1C	93	7	x	-1.6	x	x	x
Cc1csc(NC(=O)c2cc(C)oc2C)n1	105	-5	x	0.3	x	-26	94
CCOc1cc(CNC(C)(C)CO)cc(Br)c1OCc1ccc(Cl)cc1Cl	102	-10	i	-0.6	0.48	14	90
Cc1c(Cl)cccc1NC(=O)NCc1ccncc1	100	-2	i	x	0.95	x	x
CCCC(=O)Nc1ccc(-c2nc3cc(C)c(C)cc3o2)cc1	97	-6	i	-0.9	0.63	59	54
CCN(C(=O)COC(=O)/C=C/c1cnc2ccccc2n1)c1ccccc1	75	-7	i	x	0.69	-90	232
Cc1ccc[n+](C(C)C(=O)c2ccc(-c3ccccc3)cc2)c1 (configuration not stated)	49	-12	i	-2.0	0.97	15	148
CCOc1ccc(C2C(C(=O)C3CC3)N3C=C(C#N)C=CC3C2(C#N)C#N)cc1 (configuration not stated)	97	-7	i	-0.6	1.1	x	x
CCN(C(=O)CSc1nnc(-c2ccncc2)n1Cc1ccccc1)C1CCS(=O)(=O)C1 (configuration not stated)	99	2	i	x	1.1	-7	95
CCNc1nc(N)nc(Oc2ccc(OCCOc3ccc(Cl)cc3Cl)nn2)n1	104	0	i	1.8	0.95	32	83
O=C(COC(=O)/C=C/c1ccccc1[N+](=O)[O-])NCC(F)(F)F	99	1	i	x	1	x	x
CCN(CCCc1ccccc1)CCCc1ccccc1	101	0	i	-1.0	0.71	-38	90
C=CCOc1ccc(Br)cc1/C=C1/SC(=Nc2ccc(C(=O)O)cc2)NC1=O	99	-5	i	x	1.1	-29	112
CCOC(=O)N1CCN(c2nc(-c3ccco3)cc(C(F)(F)F)n2)CC1	113	0	i	-2.2	0.83	x	x
CN(C)S(=O)(=O)c1ccc(C(=O)Nc2ccccc2OC(F)(F)C(F)F)cc1	105	-3	i	-1.1	0.97	-72	82
CCCn1c(SCC(=O)c2ccc3c(c2)OCCO3)nc2c1c(=O)n(C)c(=O)n2C	100	-5	i	-1.4	0.74	7	81
Cc1ccc(NC(=O)CC(NCC2CCCO2)C(=O)O)cc1C (configuration not stated)	102	0	i	x	1	-19	64
O=C(CSc1nnc2ccccn12)NNC(=O)c1ccc(Cl)cc1	103	-5	i	x	1.2	14	100
CN(C)/C=N/c1ncc(C(=O)OC(C)(C)C)s1	107	-4	i	x	1.1	0	132
CCCCNC(=S)N/N=C/C1=CCC2CC1C2(C)C (configuration not stated)	114	0	i	-0.8	0.91	23	70
COC(=O)Cc1[nH]n(-c2nc3ccccc3s2)c(=O)c1C(C)=Nc1ccc(Cl)cc1	102	x	i	x	1	x	x
CCC(C)NC(=O)Cn1cccc1C(=O)c1ccccc1 (configuration not stated)	77	-22	i	-0.9	0.86	22	83
O=C(Nc1nnc(-c2ccc3c(c2)CCCC3)o1)C1COc2ccccc2O1 (configuration not stated)	101	-13	i	-3.2	1.1	x	x
N#Cc1ccccc1N=Cc1ccc(Br)cc1	97	4	i	-2.0	0.93	33	146
Nc1nnc(-c2ccc(Cl)cc2)o1	103	x	i	x	0.98	x	x
CCc1ccccc1OCC(=O)OCC(=O)N1CC(=O)Nc2ccccc21	34	0	i	x	0.99	-60	126

One compound at a time, as listed above. Values in the order: RGS16-Gao, PKD1 inh, HSV replic up, GALR2 agonist, HSV replic up primary fold, Insulin prom inh, Insulin prom inh cell count
`Nc1nnc(-c2ccc(Cl)cc2)o1` is entered as 103, x, i, x, 0.98, x, x
`CN(C)/C=N/c1ncc(C(=O)OC(C)(C)C)s1` is entered as 107, -4, i, x, 1.1, 0, 132
`N#Cc1ccccc1N=Cc1ccc(Br)cc1` is entered as 97, 4, i, -2.0, 0.93, 33, 146
`CCC(C)NC(=O)Cn1cccc1C(=O)c1ccccc1` (configuration not stated) is entered as 77, -22, i, -0.9, 0.86, 22, 83

The listing continues:
SMILES	RGS16-Gao	PKD1 inh	HSV replic up	GALR2 agonist	HSV replic up primary fold	Insulin prom inh	Insulin prom inh cell count
COc1cc(NC(=S)NC(C)(C)C)c(OC)cc1Cl	100	-3	i	x	0.97	x	x
Cc1ccc(S(=O)(=O)NC(=O)c2cc(C)n(-c3ccccc3)c2C)cc1	127	-4	i	-0.4	0.96	x	x
CCCCNCCOCCOc1ccc(C)cc1[N+](=O)[O-]	99	-12	i	-1.6	0.94	-23	134
COc1cc(N/N=C/c2ccc(N(C)C)cc2)ncn1	109	7	i	x	0.99	70	99
O=C(NC1CCCCC1)c1ccc(Br)o1	96	-11	i	-1.3	0.97	-3	162
CC(=O)c1cc2c(s1)-c1cc(F)ccc1OC2	106	x	i	x	1.1	x	x
C=CCc1ccccc1OCCSc1nc2ccc([N+](=O)[O-])cc2s1	96	3	i	-0.2	0.98	-81	92
COC(=O)C1C2C=CC3(CN(c4cccc(C)c4)C(=O)C13)O2 (configuration not stated)	100	11	x	-0.6	x	x	x
O=C(O)C1CCCCC1C(=O)N1CCCC1 (configuration not stated)	100	4	i	x	1.1	x	x
CN(C)CCN(C(=O)CCc1ccccc1)c1nc2c(F)cc(F)cc2s1	102	-3	i	x	0.9	-47	61
COc1ccc(N2CCN(C(=O)CNS(=O)(=O)c3ccc(C)c(C)c3)CC2)cc1	102	-3	i	x	1	x	x
Cc1cc(SCC(=O)c2cccs2)n2nc(C)c(-c3ccccc3)c2n1	118	-8	i	0.0	1.1	52	88
Cc1ccc(-c2nnn(C/C(N)=N/O)n2)cc1	101	-1	i	x	0.96	-6	138
COc1cc(C(=O)NNC(=O)c2cc(C)[nH]n2)cc(OC)c1OC	102	0	i	x	1.1	x	x
c1ccc2sc(NN=C3CCCC3)nc2c1	102	-8	i	x	1	x	x
CCCC(=O)N(c1ccccc1)C1C=CS(=O)(=O)C1 (configuration not stated)	96	-4	i	x	1	-11	91
Fc1ccc(Nc2nc(-c3ccncc3)cs2)cc1	102	-5	i	x	0.85	-13	139
Cc1c(NC(=O)COC(=O)c2ccc(F)c(S(=O)(=O)N3CCOCC3)c2)c(=O)n(-c2ccccc2)n1C	105	-1	i	x	0.92	x	x
Cc1cc(C(=O)CCl)c(C)n1-c1cccc([N+](=O)[O-])c1	101	-1	i	x	1	x	x
CCOC(=O)c1cccc(NC(=O)C2(S(=O)(=O)c3ccc(C)cc3)CC2)c1	102	-14	i	-0.4	0.96	12	153
Cc1ccc(-c2nc(CN3CCCCC3CCN3CCCC3=O)c(C)o2)o1 (configuration not stated)	108	-10	i	x	1	-4	116
CCCNC(=O)C(NS(=O)(=O)c1cccc2nsnc12)c1ccccc1 (configuration not stated)	106	-12	i	-3.9	1	-93	153
O=C(Nc1cccc(C(F)(F)F)c1)C1CCCN1S(=O)(=O)c1cccc2cccnc12 (configuration not stated)	84	-6	i	-0.5	0.87	x	x
CC(C)Cc1nnc(NC(=O)CCc2c[nH]c3ccccc23)s1	112	-7	i	x	0.86	-18	230
CCOc1cc(/C=N/N2C(=O)NC3(CCCCC3)C2=O)cc(Br)c1O	107	3	i	x	1.1	x	x
COc1ccc(Cl)cc1NC(=O)CCN1CCN(c2ccccc2C)CC1	104	-3	i	-2.1	0.99	-79	122
CC(=O)Nc1ccccc1NC(=O)CN(C)S(=O)(=O)c1ccc(C)cc1	107	8	i	-1.3	1.1	23	126
CC(C)C(C(=O)OCC(=O)c1cccc([N+](=O)[O-])c1)N1C(=O)[C@@H]2[C@H]3CC[C@H](C3)[C@@H]2C1=O (some centres not stated)	102	9	i	-0.1	0.93	x	x
COc1ccc(NS(=O)(=O)c2cccc(N3CC(O)=C(c4ccccc4)C3=N)c2)cc1	100	2	i	-1.0	1.2	x	x
O=C(O)c1ccc2c(c1)C(=O)N(c1ccc(/C=C/C(=O)c3ccccc3)cc1)C2=O	102	1	i	x	0.96	x	x
COc1ccc([N+](=O)[O-])cc1N1C(=O)c2cccc3cccc(c23)C1=O	114	-6	x	0.7	x	17	105
CC(=O)/C(C#N)=C1\NC(=O)C(Cc2ccccc2Cl)S1 (configuration not stated)	103	-3	x	-0.6	x	33	125
COc1ccc(C2N(C(=O)c3ccccc3)CCN2C(=O)c2ccccc2)cc1	99	5	i	-2.4	0.84	i	43
Cc1cccc(NC(=O)CCS(=O)(=O)c2cccc3nsnc23)c1C	97	-3	i	-1.2	0.97	-97	83
CC(C)(C)[C@H]1C=C(C(=O)N2CCN(Cc3ccccc3)CC2)O[C@@H](OCCCCO)C1	97	3	i	x	0.9	x	x
O=[N+]([O-])c1cccc(/C([O-])=C(/C(=S)Nc2ccccc2)[n+]2ccccc2)c1	39	0	i	0.0	1.1	29	79
CC(C)CC(c1nnnn1C1CCCC1)N1CCC(C(N)=O)CC1 (configuration not stated)	99	1	i	x	0.95	-33	70
COC(=O)c1ccc2c(=O)n(CCCCCC(=O)N3CCN(c4ccc(F)cc4)CC3)c(=O)[nH]c2c1	100	1	i	-0.6	0.97	x	x
O/N=C/c1ccc(OCC(O)COc2ccc(/C=N/O)cc2)cc1	103	-4	i	0.2	0.95	-3	157
CCn1c(SCC(=O)Nc2nccs2)nnc1-c1ccccc1	86	-1	i	-1.9	0.98	62	88
CC(C)OC(=O)c1ccc(NC(=O)C2C3CC4OC(=O)C2C4C3)cc1 (configuration not stated)	103	-8	i	-2.7	0.94	27	82
CCOC(=O)CC(=O)CSc1nc2ccc(OC)cc2cc1C	101	-9	i	x	0.99	x	x
CC(C)N(C(=O)c1ccc2nc3c4ccccc4c4ccccc4c3nc2c1)C(C)C	x	-5	x	-1.7	x	-348	33
CCOC(=O)C1CCCN(c2c(N3CCN(c4cccc(Cl)c4)CC3)c(=O)c2=O)C1 (configuration not stated)	16*	3	x	x	x	x	x
CCc1ccc(CNc2ccc3c(c2)ncn3C)cc1	99	1	i	-1.4	0.99	3	112
CCOC(=O)c1cnc2c(Cl)c(Cl)ccc2c1N1CCN(C)CC1	103	-7	i	-1.0	0.78	14	90
O=c1n(-c2ccc(Br)cc2)cnn1-c1ncccc1[N+](=O)[O-]	99	-6	i	x	1	x	x
Cc1cccc(N(CC(=O)O)CC(=O)O)c1	89	-2	i	-0.4	0.91	x	x
CCOC(=O)c1[nH]c(C)c(/C(O)=C2\C(=O)C(=O)N(CCN3CCOCC3)C2c2ccco2)c1C (configuration not stated)	103	-7	i	x	0.97	x	x
C/C(=N\NC(=O)CN(c1ccc(Oc2ccccc2)cc1)S(C)(=O)=O)C(C)(C)C	99	-10	i	x	0.83	41	62

Continued:
SMILES	RGS16-Gao	PKD1 inh	HSV replic up	GALR2 agonist	HSV replic up primary fold	Insulin prom inh	Insulin prom inh cell count
Cc1ccc(NC(=O)N2CCC(O)(c3ccc(Cl)cc3)CC2)cc1	85	4	i	-0.3	0.92	x	x
CCOC(=O)CSc1nc(CC)nc2ccccc12	100	-5	i	-1.0	0.88	x	x
Cc1ccc(-c2cc(O)cc3sc(=O)oc23)cc1C	93	x	i	x	1.2	x	x
Cc1ccc(-n2cc(CNCCCN3CCCC3=O)c(-c3ccc(F)cc3)n2)cc1	99	7	i	x	0.88	x	x
CC1CCC(NC(=O)C(NC(=O)c2ccccc2)C(C)C)CC1 (configuration not stated)	99	2	i	x	1.1	x	x
O=C1CCCN1S(=O)(=O)c1ccccc1	100	-2	i	x	1.1	-2	138
Cc1ccc(O)c(CC(C)C)n1	112	-3	i	-1.6	0.88	84*	142*
